Compound activity: PubChem BioAssay, Fisher Drug Discovery Resource Center
NPYLR7 ag: agonists of mosquito NPYLR7 receptor, primary screen, cell-based, Aedes aegypti, calcium fluorescence, mosquito biting behavior; HEK293T NPYLR7/Galpha15, GCaMP6s calcium fluorescence; 270,000 tested, 0.15% active; activation, % at 10 µM; AID 1259423, 2018; Aedes aegypti neuropeptide Y-like receptor 7 (NPYLR7); in the data active = activation above about 40%;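 also: 0% = vehicle and 100% = reference agonist at the receptor; some compounds past the cut are filed as inactive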
NPYLR7 ag max-min: further read-out of NPYLR7 ag, marked with its call; activation, %; measured here: Max-Min RFU normalised activation; some inactives read as strong as hits;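 span of the calcium signal over five minutes; 0% = vehicle and 100% = native peptide agonist; compound fluorescence can raise it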
The depositor's hits bear a star; & = joins results of further samples. Not all compounds are listed. The share of hits here may be higher or lower than overall.

SMILES	NPYLR7 ag	NPYLR7 ag max-min
Cc1ncc(C(=O)Nc2cc(S(=O)(=O)N(C)C)ccc2F)s1	6	3
CCOC(=O)N1CCN(C(=O)c2csc(CSc3nnc(-c4ccco4)n3-c3ccc(Cl)cc3Cl)n2)CC1	14	19
CC(C)(O)c1cn(C2CCN(C(=O)C3(C(F)(F)F)CC3)CC2)nn1	11	8
C=C(C)c1cccc(C(C)(C)NC(=O)N2CCN(CC=Cc3ccccc3)CC2)c1	-4	-8
COc1ccc(-n2ncc(Oc3ccccc3)c(Nc3cccc(C(=O)NCc4ccc(F)cc4)c3)c2=O)cc1	3	2
Cc1csc(NC(=O)c2cccc(C(=O)Nc3nc(C)cs3)n2)n1	5	9
CCOCCn1ccc2c(NC(=O)Cc3cccc(OC)c3)c(OC(=O)N(CC)CC)ccc21	-1	4
C/C(=N\NC(=O)c1cc(C2CC2)[nH]n1)c1ccc(Br)cc1	4	4
NC(=O)CSC(F)(F)F	6	5
Cc1ccc(C(=O)N(C)Cc2csc(C(C)C)n2)cc1NC(=O)C1CC1	3	-7
C=C(C)C(O)Cc1c(CCCCC)cc(O)c(CC=C(C)C)c1O (stereo not drawn)	-5	-12
Cc1nn(C2CCS(=O)(=O)C2)c2nc(-c3ccccc3)cc(C(=O)NC3CC3)c12 (stereo not drawn)	3	8
CNS(=O)(=O)c1ccc(Cl)cc1	5	13
Cc1cc(C)cc(S(=O)(=O)NCCOc2ccc(-c3ccc(F)cc3)nn2)c1	-6	-4
CCCCC(=O)Nc1c(-c2ccc(Cl)cc2)nc2cc(C)ccn12	-2	5
CN(C)c1ccc(NC(=O)c2ccco2)cc1CN(CC1CCCO1)S(C)(=O)=O (stereo not drawn)	20	23
CC1(Cc2cccc(C(F)(F)F)c2)C(=O)Nc2ccc(-c3ccncc3)cc21 (stereo not drawn)	2	3
FC(F)(F)C1=NCCN=C(c2cccs2)C1	2	4
COc1ccc(Nc2cccc3nonc23)cc1	6	2
Cc1ccc(Cl)c2sc(N(CCN3CCOCC3)C(=O)c3ccno3)nc12	1	21
CC(C)CC(=O)N(C)CCN1C(=O)C(C)SC1c1ccc(Cl)c(Cl)c1 (stereo not drawn)	1	5
COC(=O)c1cccc(C(=O)N2CCCc3cc(C(C)C)ccc32)n1	-3	-5
Cc1sc2nc[nH]c(=S)c2c1-c1ccccc1	13	5
Cc1cnccc1NCCNC(=O)c1cn(CC2CCCNC2)nn1 (stereo not drawn)	-1	-4
COCCN(CC(=O)N(CCc1c[nH]c2ccccc12)Cc1ccccc1)S(=O)(=O)c1ccc(Cl)cc1	20	17
The listing continues:
SMILES	NPYLR7 ag	NPYLR7 ag max-min
CCN(CC)c1onc(-c2ccc(F)cc2)c1CN(CCOC)C(=O)C1CCCC1	12	13
CONC(=O)c1cc(-c2ccc(OC)cc2)n(-c2ccccc2)n1	10	6
CC(=O)Nc1ccc(CN2C(=O)C(Cc3ccccc3)ON=C2c2ccccc2)cc1 (stereo not drawn)	8	4
NC(=O)Nc1cc(-c2cccc(F)c2)sc1C(=O)N[C@H]1CCCNC1	-5	-14
CCNC(=O)c1cccc(C)c1OCC(=O)NC(C)(C)CC	3	8
CCOC(=O)c1ccc(OC2CC3CCC(C2)N3C(=O)c2ccc(CSc3ccoc3C)cc2)cc1 (stereo not drawn)	-1	-9
CCc1cccc(NC(=O)N(Cc2cccc(OS(=O)(=O)c3cccc(C(F)(F)F)c3)c2)CC(C)C)c1	-11	-16
C=CCn1c(SCc2ccon2)n[nH]c1=O	-1	1
Cc1ncsc1CCc1nc(C2CC2)nn1-c1ccccn1	17	4
N#Cc1c(-c2ccc(Cl)cc2)cc(-c2cccs2)nc1SCc1ccncc1	-4	-8
Cc1cccnc1NC(=O)c1ccc2c(c1)OCCCO2	-4	-2
CC(=O)Cc1nsc(NCc2ccco2)n1	-2	-2
COc1ccc(C(=O)Nc2noc3ncccc23)cc1	13	9
Cc1onc(-c2c(F)cccc2Cl)c1C(=O)N1CCC2(CC1)OCCO2	-17	-23
Cc1ccc(C)c(OCCn2c(C(C)(C)C)nc3ccccc32)c1	-8&21	-10&20
COc1ccc(CCN(C)C2CCCN(C(=O)c3ccoc3C)C2)cc1OC (stereo not drawn)	-1	-3
Nc1nc2c(ncn2[C@H]2C[C@H](O)[C@@H](CO)O2)c(=O)[nH]1	10	1
CCn1c(C2CCCN(C(=O)CCc3c(C)nn(C)c3C)C2)nn(C)c1=O (stereo not drawn)	6	2
Cc1ccc(-c2nnc(NC(=O)c3ccc(S(=O)(=O)N4CCCCC4)cc3)s2)cc1	-3	-7
Cc1cc(-c2nc3ccccc3o2)ccc1NC(=O)c1ccc(Cl)c(Cl)c1	4	21
CC(C)CN1CC(OCc2ccccn2)CN(Cc2ccc(Sc3nncn3C)o2)CC1=O (stereo not drawn)	-1	-5
CCc1ccc(NC(=O)CN2CN(c3ccccc3)C3(CCN(S(=O)(=O)c4ccc(Br)cc4)CC3)C2=O)cc1	-5	5
CCCOC(=O)C1=C(C)NC2=C(C(=O)CCC2)C1c1ccc(OC)c(OC)c1OC (stereo not drawn)	-2	-4
COc1ccccc1Oc1cc(-c2ccccc2)nc(SCc2cccc(C#N)c2)n1	2	15
CCOC(=O)C1CCN(C(=O)c2cc(-c3ccc(OC)cc3)n(-c3ccccc3Cl)c2C)CC1	-3	8

Sorted by number of heavy atoms (descending): some entries from above
SMILES	NPYLR7 ag	NPYLR7 ag max-min
CCOCCn1ccc2c(NC(=O)Cc3cccc(OC)c3)c(OC(=O)N(CC)CC)ccc21	-1	4
N#Cc1c(-c2ccc(Cl)cc2)cc(-c2cccs2)nc1SCc1ccncc1	-4	-8
Cc1ccc(C(=O)N(C)Cc2csc(C(C)C)n2)cc1NC(=O)C1CC1	3	-7
Cc1ncc(C(=O)Nc2cc(S(=O)(=O)N(C)C)ccc2F)s1	6	3
NC(=O)CSC(F)(F)F	6	5

Later entries.
SMILES	NPYLR7 ag	NPYLR7 ag max-min
CCN1CC(CNCc2cn(C)nc2-c2ccc(C3CCCCC3)cc2)CC1=O (stereo not drawn)	3	-4
COc1ccc(N2C(=O)CSC2c2ccc(Cl)cc2)cc1 (stereo not drawn)	2	-2
Cc1ccc(-c2cnoc2NC(=O)CSc2nc(-c3cccc(Cl)c3)cc(=O)[nH]2)cc1	-9	-12
O=C(CC(c1ccc(Cl)c(Cl)c1)c1c[nH]c2ccccc12)N1CCN(c2cccc(Cl)c2)CC1 (stereo not drawn)	2	13
COC(=O)c1c(-c2ccccc2)csc1NC(=O)c1cc(OC)c(OC)c(OC)c1	-3	-8
COC(=O)C(=O)N1CCN(c2nc3nccc(-c4ccc(C5CCCCC5)cc4)n3n2)CC1	33	23
O=C(COC(=O)c1ccc([N+](=O)[O-])o1)NCC(F)(F)F	-1	2
COCCCNCc1c(-c2cccc(C)c2)noc1N1CCCC1	22	19
CN(NC(=O)C1CCCN(Cc2cnc3ccccn23)C1)c1ccccc1 (stereo not drawn)	0	16
N#CC1(C(=O)NCc2ccc(N3CCCC3)cc2)CCCC1	2	0
Cc1ccccc1-n1c(SCc2cccc(Cl)c2)nnc1C1CCCCC1	18	18
CN1CCC2(CC1)CN(C(=O)[C@@]13CC[C@@](C)(OC1=O)C3(C)C)CCN2C	1	-4
CCc1c(C)nc(-c2cccc(C)c2)nc1N1CCN(C(=O)c2ccc(OC)cc2)CC1	5	7
CCC(O)CN(Cc1cccn1Cc1ccccc1C)CC1CCCCC1 (stereo not drawn)	4	13
CN(C)c1ccc(NC(=O)C2CC2)cc1CN(Cc1cccc(F)c1)C(=O)c1ccc(F)cc1	5	16
Cc1ccc(N=Nc2sc3ccccc3c2O)cc1	-2	-4
CC(CNC(=O)CCc1c[nH]c2ccccc12)n1cncn1 (stereo not drawn)	2	3
Nc1cc(-c2ccc(Cl)cc2)nn1-c1ccc(C(=O)N2CCOCC2)cc1	8	8
O=C(O)CCn1nc(Nc2ccccc2)n(-c2ccccc2)c1=S	-17	-23
COc1ccc(Nc2nc(Cl)nc(Nc3ccc(OC)cc3OC)n2)c(OC)c1	8	1
COCCn1c(-c2cccs2)nc2c(c(=O)c3ccccc3n2C)c1=O	5	1
CCCCn1nnnc1CN1C(=O)NC2(CCCCC2C)C1=O (stereo not drawn)	9	6
O=C(NCc1ccccn1)C(C1CCCC1)N1CCN(C(=O)c2ccc([N+](=O)[O-])cc2)CC1 (stereo not drawn)	-7	1
O=C(NCCc1n[nH]c(=S)n1C1CC1)c1cccc(F)c1F	8	5
COC(=O)CCC1CCCCN1C(=O)c1nc[nH]c1C (stereo not drawn)	-1	-2
(further entries)
SMILES	NPYLR7 ag	NPYLR7 ag max-min
CN(CCc1cnn(C)c1)C(=O)c1cc(COc2ccc3c(c2)OCO3)[nH]n1	1	0
CN(Cc1ccccc1)CC1(c2ccnc(-c3ccc(Cl)cc3)c2)CC1	3	-1
CCCCc1ccc(C(=O)NCC2CCN(c3nc(Cc4ccc(Cl)cc4)ns3)CC2)cc1	-1	-12
O=C(c1ccccc1Cl)N1CCN(c2nccc(-c3ccc(N4CCOCC4)cc3)n2)CC1	22	25
COc1ccc(N2C(N)=NC(N)=NC23CCCC3)cc1	14	10
CC(NC(=O)c1cccc(S(=O)(=O)NC2CC2)c1)c1ccccc1Br (stereo not drawn)	0	6
O=C(CCOc1ccccc1)NC12CC3CC(CC(C3)C1)C2	0	-3
CC(C)CC(NC(=O)Nc1ccccn1)C(=O)N1CCC(CO)CC1 (stereo not drawn)	-1	-1
Cc1cccc(-n2c(SCc3nc(C(=O)N4CCN(c5ccc([N+](=O)[O-])cc5)CC4)cs3)nnc2-c2cccs2)c1	-2	4
CCS(=O)(=O)Oc1ccccc1CN(C(=O)c1ccccc1F)C1CC1	-7	-5
O=c1c(N=Nc2ccc3ccccc3c2)c(-c2ccccc2)[nH]n1-c1nc(-c2ccccc2)cs1	-11	-13
CC(C)(C)n1cc(Nc2cccc(F)c2C#N)cn1	-2	0
COc1ccc(OC)c(CN2CCC(c3nc(C)ccc3C(=O)NCc3ccc(C)cc3)CC2)c1	4	3
COc1ccc(NC(=O)CSc2nc3c(cnn3CCO)c(=O)[nH]2)cc1OC	3	1
CCC(c1cccnc1)N(C)Cc1ccsc1 (stereo not drawn)	0	1
O=C(Nc1ccnn1Cc1ccccc1Br)c1ccc(F)cc1F	1	-1
CN(Cc1cccnc1)C(=O)CC1C(=O)NCCN1Cc1ccc(F)c(F)c1 (stereo not drawn)	-2	-3
CC(C)NCc1csc(COc2cc(Cl)ccc2Cl)n1	20	22
O=C(NCCc1ccncc1)c1ccc2c(c1)ncn2-c1ccccc1	3	4
Cc1cc(C)cc(NC(=O)CSc2nccn(-c3cccc(F)c3)c2=O)c1	3	-3
O=C(C1=COCCO1)N(Cc1ccccc1)c1nc2c(F)cccc2s1	-1	-5
O=C(C(Cc1ccccc1)c1ccccc1)N1CCCC1c1nnc2c(C(F)(F)F)cccn12 (stereo not drawn)	-13	-17
Cc1cc(CNC(=O)C2CC(=O)N(CC(C)C)C2)c2[nH]c(C)c(C)c2c1 (stereo not drawn)	8	2
Cn1cc(C(=O)NCCc2ccccc2)c2nn(-c3ccccc3)c(=O)c-2c1	3	2
Cc1ccc(S(=O)(=O)N2CCCN(C(=O)c3ccccc3N3CCCC3=O)CC2)cc1	0	-1

Overlap with the part before: 6 entries, then new ones.
SMILES	NPYLR7 ag	NPYLR7 ag max-min
Cc1cc(C)cc(NC(=O)CSc2nccn(-c3cccc(F)c3)c2=O)c1	3	-3
O=C(C1=COCCO1)N(Cc1ccccc1)c1nc2c(F)cccc2s1	-1	-5
O=C(C(Cc1ccccc1)c1ccccc1)N1CCCC1c1nnc2c(C(F)(F)F)cccn12 (stereo not drawn)	-13	-17
Cc1cc(CNC(=O)C2CC(=O)N(CC(C)C)C2)c2[nH]c(C)c(C)c2c1 (stereo not drawn)	8	2
Cn1cc(C(=O)NCCc2ccccc2)c2nn(-c3ccccc3)c(=O)c-2c1	3	2
Cc1ccc(S(=O)(=O)N2CCCN(C(=O)c3ccccc3N3CCCC3=O)CC2)cc1	0	-1
COCCN1C(=O)C(c2c(C)[nH]n(-c3ccc(Cl)c(Cl)c3)c2=O)=C([n+]2ccccc2)C1=O	-6	-6
O=S(=O)(CCc1ccncc1)Cc1ccc2c3c(cccc13)CC2	2	0
Cn1c(N)c(Oc2ccc(OCc3ccccc3)cc2)c(=O)[nH]c1=O	-2	-4
COc1ccc(NC(=O)CSc2nc3ccccc3s2)cc1OC	-5	-11
O=C1/C(=C/c2ccc(Cl)cc2)C=C(c2ccccc2)N1c1cccc(Cl)c1	-2	-1
COc1ccc(-c2nc(NCc3ccccc3)c3ccc(Cl)cc3n2)cc1	5	17
CN1C(=CC(=O)C[n+]2cccc(Br)c2)C(C)(C)c2ccccc21	0	-8
O=C1CCC(=O)N1c1cc(Cl)ccc1Cl	1	-1
COC(=O)C1=C(C(=O)OC)C2CC1C1ON(c3ccccc3)C(c3ccccc3)C21 (stereo not drawn)	6	9
CC(=O)Nc1ccc(/C=C/C(=O)N2CCCN(S(=O)(=O)c3ccc(F)cc3)CC2)cc1	2	0
CCOc1ccc(C2C(C(=O)OC(C)C)=C(C)NC3=C2C(=O)CCC3)cc1OC (stereo not drawn)	-4	-9
COc1ccc(CN2CCC(C(=O)NC(C)c3cc(OC)ccc3OC)CC2)cc1 (stereo not drawn)	4	-1
Cc1ccc(C2(O)CCN(Cc3nnnn3Cc3ccccc3)CC2)nc1	9	5
CN(C)C(=O)N1CCC(C(=O)N(C)C2CCCN(Cc3ccccc3F)C2)CC1 (stereo not drawn)	14	8
COc1ccc(CN2CCC3(CC2)NC(=O)c2c(F)cccc2N3)cc1	2	10
Cc1cc(O)c(C(c2ccc(O)cc2)c2c(O)cc(C)n(CCO)c2=O)c(=O)n1CCO	9	8
